ALOX15B inhib: qHTS Assay for Inhibitors of 15-hLO-2 (15-human lipoxygenase 2). Potency, µM (highest dose often 57.1 µM), without a hit: top-dose activity change, negative = inhibition, usual class: inhibitors. 110,000 compounds, 0.56% hits. Polyunsaturated fatty acid lipoxygenase ALOX15B (Homo sapiens), O15296. purified 15hLO-2, xylenol orange hydroperoxide absorbance; active = well fitted inhibition curve with a large enough effect; inconclusive = small, poorly fitted or top-dose-only effect; inactive = no such curve, though single readings can be large or run the other way; also: potency is read from the fitted curve at half-maximal effect; nearly all actives have a fitted effect of over 60% in size; many of its hits are not listed in these tables
Target sequence (O15296 whole entry, looked up): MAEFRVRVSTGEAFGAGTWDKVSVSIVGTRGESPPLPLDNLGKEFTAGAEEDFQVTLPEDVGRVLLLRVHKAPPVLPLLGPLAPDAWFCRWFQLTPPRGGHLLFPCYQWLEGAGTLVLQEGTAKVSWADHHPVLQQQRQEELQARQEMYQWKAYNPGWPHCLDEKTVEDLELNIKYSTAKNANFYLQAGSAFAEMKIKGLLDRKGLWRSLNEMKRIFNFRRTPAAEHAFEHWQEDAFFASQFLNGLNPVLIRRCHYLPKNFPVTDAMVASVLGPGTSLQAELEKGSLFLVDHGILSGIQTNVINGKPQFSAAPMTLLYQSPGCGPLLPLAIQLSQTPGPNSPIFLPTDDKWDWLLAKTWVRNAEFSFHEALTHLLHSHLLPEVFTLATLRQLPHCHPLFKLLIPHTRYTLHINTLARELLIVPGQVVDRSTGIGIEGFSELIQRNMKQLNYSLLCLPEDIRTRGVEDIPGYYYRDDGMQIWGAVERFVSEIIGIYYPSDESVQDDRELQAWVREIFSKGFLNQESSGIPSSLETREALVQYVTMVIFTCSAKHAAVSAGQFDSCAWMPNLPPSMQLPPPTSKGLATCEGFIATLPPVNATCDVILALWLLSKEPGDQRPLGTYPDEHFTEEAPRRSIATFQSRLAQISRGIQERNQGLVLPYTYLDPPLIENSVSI
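Purified human 15hLO-2 (50 nM) preincubated 15 min with compound, then 45 uM arachidonic acid for 90 min at RT in 25 mM Hepes pH 7.5, 0.01% Triton X-100. Hydroperoxide detected by Fe-xylenol orange; 573/405 nm absorbance ratio.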
PNC assembly inh: High Content Assay for Compounds that inhibit the Assembly of the Perinucleolar Compartment | PC3M PTB-GFP, PNC prevalence imaging, 16 h; hits give low values | activity change (PNC), negative = inhibition, % at 10 µM | 140,000 compounds, 3.1% hits | AID 2417, 2010;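 active = readout at or below -70, meaning at least 70% loss of cells showing the perinucleolar compartment, a nuclear body marking cancer cells; inconclusive = readout between -30 and a set limit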;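 also: plate controls were DMSO wells for no effect and camptothecin positive control wells for full effect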
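PC3M cells stably expressing PTB-GFP, 750–1000 cells/well, treated 16 h at 37 °C with compound (23 nl of library stock), in duplicate. After paraformaldehyde fixation and Hoechst stain, imaged at 20x; PNC prevalence scored by image analysis.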
Numbers without * were called inactive; ? = inconclusive; . = not tested or not shown; & = joins results of further samples; [ ] = dose if it differs, or a comment. Unless noted, % is scaled to controls: 0 for no effect and ±100 for the full control effect.

Start of the data: the first five entries, ahead of the listing:
canonical_smiles	ALOX15B inhib	PNC assembly inh
O=C(O)C1C2C=CC(C2)C1C(=O)NCCC1=CCCCC1 (stereo not drawn)	-5.3%	19.3
Oc1ccc2ccccc2c1CNc1cnc2ccccc2c1	13.0%	7.3
O=C(O)CC(O)(CC(=O)O)C(=O)O	9.5%&-7.2%	.
COc1ccc(OCC(=O)Nc2cc(OC)cc(OC)c2)cc1	3.4%	-9.3
C[C@]12CCC(=O)C=C1CC[C@@H]1[C@@H]2[C@@H](O)C[C@@]2(C)[C@H]1CC[C@]2(O)C(=O)CO	4.4%	33.4

The list itself, from the first entry:
canonical_smiles	ALOX15B inhib	PNC assembly inh
O=C(O)C1C2C=CC(C2)C1C(=O)NCCC1=CCCCC1 (stereo not drawn)	-5.3%	19.3
Oc1ccc2ccccc2c1CNc1cnc2ccccc2c1	13.0%	7.3
O=C(O)CC(O)(CC(=O)O)C(=O)O	9.5%&-7.2%	.
COc1ccc(OCC(=O)Nc2cc(OC)cc(OC)c2)cc1	3.4%	-9.3
C[C@]12CCC(=O)C=C1CC[C@@H]1[C@@H]2[C@@H](O)C[C@@]2(C)[C@H]1CC[C@]2(O)C(=O)CO	4.4%	33.4
CC12CCC(C(=O)N(CC(O)CN3CCCCC3)C1=O)C2(C)C (stereo not drawn)	8.5%	18.8
O=C(N/N=C/c1ccc2c(c1)OCO2)c1ccc(Br)o1	.	75.1
Fc1cccc(CN2CCCCCCC2)c1	-9.3%	-1.3
Nc1nnc(-c2cccc(Cl)c2Cl)c(N)n1	11.5%	-25.8
C/C=C\C[C@H](C)[C@H](O)[C@H]1C(=O)N[C@@H](CC)C(=O)N(C)CC(=O)N(C)[C@@H](CC(C)C)C(=O)N[C@@H](C(C)C)C(=O)N(C)[C@@H](CC(C)C)C(=O)N[C@@H](C)C(=O)N[C@@H](C)C(=O)N(C)[C@@H](CC(C)C)C(=O)N(C)[C@@H](CC(C)C)C(=O)N(C)[C@@H](C(C)C)C(=O)N1C	2.3%[25.6 µM]	.
CN(C(=O)COC(=O)c1cccnc1Nc1cccc(C(F)(F)F)c1)C1CCS(=O)(=O)C1 (stereo not drawn)	.	-17.0
O=[N+]([O-])c1ccc(-c2nc(-c3cccs3)c(-c3cccs3)[nH]2)cc1	-23.7%	-13.4
CCN(CC)CCCN1C(=O)C(O)=C(C(=O)c2cc3cccc(OC)c3o2)C1c1ccncc1 (stereo not drawn)	0.1%	8.7
CCC(C)NC(=O)C1CCN(S(=O)(=O)c2cccnc2)CC1 (stereo not drawn)	-9.1%	?
CCc1ccc(OCCCOc2ccc(C=O)cc2)cc1	11.2%	-10.0
CC(C)C(=O)NC(Nc1cc(C(F)(F)F)ccc1Cl)C(Cl)(Cl)Cl (stereo not drawn)	.	0.1
Cc1sc2c(c1C)CN(C(C)(C)C)CN2C(=O)c1ccccc1	7.3%	4.5
O=C1CC(N2CCN(c3nc4ccccc4s3)CC2)C(=O)N1c1cccc(F)c1 (stereo not drawn)	-1.5%	?
CCOC(=O)/C(=C\c1ccc([N+](=O)[O-])o1)NC(=O)c1ccccc1	-7.4%	-7.6
COC(=O)c1ccc(C23CC4(C2)[C@H](CN(Cc2cccnc2)[C@@H]4c2ccccc2)C3c2ccc(Cl)nc2)cc1 (stereo partly drawn)	1.8%	.

For convenience, some entries already given:
canonical_smiles	ALOX15B inhib	PNC assembly inh
Cc1sc2c(c1C)CN(C(C)(C)C)CN2C(=O)c1ccccc1	7.3%	4.5
O=C1CC(N2CCN(c3nc4ccccc4s3)CC2)C(=O)N1c1cccc(F)c1 (stereo not drawn)	-1.5%	?
CCOC(=O)/C(=C\c1ccc([N+](=O)[O-])o1)NC(=O)c1ccccc1	-7.4%	-7.6
COC(=O)c1ccc(C23CC4(C2)[C@H](CN(Cc2cccnc2)[C@@H]4c2ccccc2)C3c2ccc(Cl)nc2)cc1 (stereo partly drawn)	1.8%	.

Carrying on:
| compound | ALOX15B inhib | PNC assembly inh |
| --- | --- | --- |
| Cc1ccc(CNc2ccc(O)cc2)cc1 | -23.8%[2.29 µM] | -20.9 |
| O=C(O/N=C\c1ccc(N2CCCCC2)c([N+](=O)[O-])c1)c1cccc(Cl)c1 | -7.3% | 16.9 |
| CCC(C)(C)NC(=O)C(c1ccc(C)o1)N(Cc1cccs1)C(=O)Cn1nnc2ccccc21 (stereo not drawn) | ? | 2.1 |
| O=[n+]1cc(-c2ccccc2)n([O-])c2c1CCCCC2 | . | ? |
| CCOC(=O)c1c(C)n(C)c2ccc(OC)c(NC(=O)CN3CCN(C(=O)c4ccco4)CC3)c12 | -13.6% | -10.8 |
| N#Cc1nc(Cc2cccc3ccccc23)oc1N1CCN(c2ccccc2)CC1 | -8.3% | 7.8 |
| CN(C)c1ccc(O)c2c1CC1CC3[C@@H](N(C)C)C(=O)C(C(N)=O)=C(O)[C@]3(O)C(=O)C1=C2O (stereo partly drawn) | . | -27.9 |
| COc1ccc(/C=N/NC(=O)CO/N=C(\C)c2cccs2)cc1 | -0.4% | -9.5 |
| Nc1nc2ccc(OC(F)(F)F)cc2s1 | -17.2% | 37.0 |
| CN=C(Nc1cc(C)nn1-c1ccccc1)c1ccccc1F | 5.1% | -18.5 |
| O=c1ccn([C@@H]2O[C@H](CO)[C@@H](O)[C@H]2O)c(=O)[nH]1 | -0.5% | 5.9 |

High-throughput results from PubChem BioAssay.

Some of the compounds tested; most or all hits stand in other tables.
